ugtP null kill = growth inhibition of ugtP-null S. aureus, primary screen, RN4220 ugtP deletion, OD600. 16 h; some inactives read as strong as hits. AID 1259309, 2017. growth inhibition, % (no concentration beside the values). 330,000 tested, 0.54% active;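 active means z-score under -3 and OD600 up to 0.15 on both plates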;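 further: plate controls were untreated wells for no effect and antibiotic for full effect; wells of about 80 µL received 100 nL stock; the first replicate is given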
Bead autofluor = flagged as autofluorescent in microsphere protease counterscreen | compound autofluorescence counterscreen, microsphere flow cytometry; stronger effect = higher value | 360,000 tested, 3.1% active | fluorescence intensity (concentration not given with the values);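 active means at least 3 SD above the mean of all compounds, about 16000 in these data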;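 further: 100 nL of 1 mM stock went into each well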
BJeLR lethal = MLPCN primary cell-based screen for lethality selective to Ras in HRASV12 cells. BJeLR (HRASV12) viability, CellTiter-Glo ATP luminescence, 48 h; reference of the scale not given here. 300,000 tested, 0.17% active. inhibition, % (concentration not given with the values);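 active means replicate mean above 50%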;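 further: 50 nL library stock added to about 25 µL; numbers are from one replicate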
PrP UTR inh = inhibition of PrP 5' UTR reporter expression. inhibition, % (test concentration not listed). AID 488862, 2010. 340,000 tested, 0.35% active. cell-based PrP 5' UTR mRNA reporter, plate reader;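 active means every replicate at 50% or more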;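 further: 0 = median of the neutral control wells; tested in H4 reporter cells; numbers are from one replicate; inactives centre near -14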
RN4220 kill = growth inhibition of S. aureus RN4220, primary screen, OD600; 16 h; 330,000 tested, 0.33% active; inhibition, % (test concentration not listed);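 active means z-score of -3 or lower and OD600 up to 0.18 on both plates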;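 further: plate controls were untreated cells for no effect and reference antibiotic for full effect; stock transfer was 100 nL into about 80 µL; one replicate is shown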
Mtb hypoxia rep = PubChem AID 1159583 | M. tuberculosis hypoxia-regulated fluorescent reporter, fluorescence | fluorescence inhibition, % (test concentration not listed) | 300,000 tested, 0.1% active;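 active means 35 to 45% if threefold the growth effect, above 45% if 1.5-fold the growth effect; inactive means the rest, general growth blockers included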;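 further: wells of about 50 µL received 100 nL stock; 0% = vehicle wells and 100% = reference inhibitor wells; whole bacteria with a GFP reporter of the hypoxia response; strong numbers were not always called active; many hits fall short of the cut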
Mtb hypoxia rep growth = further read-out of Mtb hypoxia rep, marked with its call; growth inhibition, %; measured here: M. tuberculosis growth (absorbance);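 0% = vehicle and 100% = reference antibiotic; read after six days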
* marks the source's active call; other numbers are inactive results; · = no result given.

Letter code: A = ugtP null kill; B = Bead autofluor; C = BJeLR lethal; D = PrP UTR inh; E = RN4220 kill; F = Mtb hypoxia rep; G = Mtb hypoxia rep growth
O=C(NCC1(c2ccccc2)CCCC1)c1ccccc1Br
  A: -1	B: 2026	C: 0	D: 5	E: 1.0	F: 4	G: -5

COc1ccc(CCn2c(=O)c3cccnc3n(Cc3ccc([N+](=O)[O-])cc3)c2=O)cc1OC
  A: -2	B: 2575	C: ·	D: -13	E: 2.2	F: 2	G: -2

CCn1c(SCC(=O)NC2=NCCS2)nnc1C(C)NC(=O)c1ccc(Cl)cc1 (stereo not drawn)
  A: ·	B: 3731	C: -5	D: -33	E: ·	F: ·	G: ·

CC(C)(C)N1CC23CCC(C[C@@H]2C1=O)O3 (stereo partly drawn)
  A: ·	B: 3927	C: 6	D: 0	E: ·	F: ·	G: ·

CCOC(=O)C1=C(c2ccccc2)NC(=O)NC1c1cc(Cl)c(O)c(OC)c1 (stereo not drawn)
  A: -1	B: 2533	C: -1	D: -6	E: 7.0	F: 0	G: -4

O=C(CNC(=O)c1ccc(Br)o1)NC1CCCCCC1
  A: 4	B: 5845	C: 1	D: -19	E: 0.1	F: 8	G: 23

O=C(Nc1ccc(Cl)cc1C(=O)Nc1ccccn1)c1ccco1
  A: -7	B: ·	C: -7	D: -12	E: 2.8	F: 20	G: 11

O=C(NCc1ccc2c(c1)OCO2)c1cccc([N+](=O)[O-])c1
  A: -4	B: 2511	C: -4	D: -16	E: 2.8	F: ·	G: ·

COc1ccc(-c2[nH]ncc2-c2nc(C)cs2)c(O)c1
  A: 0	B: 3579	C: -4	D: -24	E: 7.4	F: 13	G: 10

COc1ccc(F)cc1CN1CCN(CC(=O)Nc2ccccc2C(=O)NC2CC2)CC1
  A: -5	B: 3841	C: ·	D: -26	E: -2.7	F: -7	G: 0

O=C(NC(=S)Nc1ccccc1Cl)C1CC1
  A: 29	B: 4263	C: -3	D: -15	E: 2.9	F: 11	G: 13

CCOC(=O)C1(CCCc2ccccc2)CCN(C(=O)c2ccoc2)CC1
  A: 6	B: 2573	C: 2	D: 2	E: 15	F: 4	G: 2

CN(CCc1ccccc1)C(=O)c1cccc(NC(=O)Cc2cccc(NC(=O)C3CCCN(C(=O)C4CC4)C3)c2)c1 (stereo not drawn)
  A: 2	B: 3902	C: ·	D: 53*	E: 3.2	F: -6	G: 8

Nc1cc(-c2ccccc2)nn1S(=O)(=O)c1ccc(F)cc1
  A: 5	B: 5306	C: -4	D: -17	E: -2.4	F: -1	G: 5

O=C(CCc1nc(-c2ccccc2F)no1)NCCc1ccccc1Cl
  A: -3	B: 4353	C: -10	D: -10	E: -1.3	F: ·	G: ·

Cc1ccccc1CCNC(=O)c1ccc(Cl)c(S(=O)(=O)N2CC(C)OC(C)C2)c1 (stereo not drawn)
  A: -22	B: ·	C: ·	D: -16	E: -5.4	F: 5	G: -3

NC(=O)NCc1ccccc1Cl
  A: -4	B: 4414	C: 1	D: -15	E: -0.5	F: -4	G: -9

COc1ccc(C)cc1NC(=O)CN1CCN(S(=O)(=O)c2ccc(Br)cc2)CC1
  A: 4	B: 5020	C: -1	D: 1	E: -0.4	F: ·	G: ·

CCn1c(SCC(=O)Nc2ccc3c(c2)OCCO3)nnc1-c1cccs1
  A: 5	B: 10701	C: -16	D: ·	E: -0.7	F: 5	G: 10

CC(=O)NCCc1nc2cc(NC(=O)c3ccccc3C)ccc2n1C
  A: 8	B: 3959	C: -4	D: -12	E: 4.1	F: 19	G: 8

Cc1ccc(S(=O)(=O)N(CCC(=O)Nc2ccc(OC(F)(F)F)cc2)c2ccccc2)cc1
  A: -30	B: 2429	C: -12	D: -15	E: -11	F: -11	G: 6

CC(C)C(c1nnnn1CCc1ccccc1)N1CCSCC1 (stereo not drawn)
  A: 3	B: 4547	C: 9	D: -4	E: 4.8	F: 10	G: 2

Cc1ccc(P(=O)(OCCN2CCOCC2)C(C)(C)C)o1 (stereo not drawn)
  A: 0	B: 11091	C: -18	D: -24	E: 4.6	F: 15	G: 17

COc1cc(C2C(C#N)=C(N)Oc3c2c(-c2ccccc2)nn3-c2ccccc2)cc(OC)c1OC (stereo not drawn)
  A: -8	B: 2507	C: 3	D: -20	E: -2.3	F: -4	G: 2

CCOC(=O)c1[nH]c2ccccc2c1NC(=O)COC
  A: 8	B: 5200	C: 7	D: -24	E: 0.1	F: 2	G: 8

Of the compounds above, two have a tert-butyl group:
Letter code: A = ugtP null kill; B = Bead autofluor; C = BJeLR lethal; D = PrP UTR inh; E = RN4220 kill; F = Mtb hypoxia rep; G = Mtb hypoxia rep growth
CC(C)(C)N1CC23CCC(C[C@@H]2C1=O)O3 (stereo partly drawn)
  A: ·	B: 3927	C: 6	D: 0	E: ·	F: ·	G: ·

Cc1ccc(P(=O)(OCCN2CCOCC2)C(C)(C)C)o1 (stereo not drawn)
  A: 0	B: 11091	C: -18	D: -24	E: 4.6	F: 15	G: 17

An excerpt of these results, field by field.
Nc1cc(-c2ccccc2)nn1S(=O)(=O)c1ccc(F)cc1
- ugtP null kill: 5
- Bead autofluor: 5306
- BJeLR lethal: -4
- PrP UTR inh: -17
- RN4220 kill: -2.4
- Mtb hypoxia rep: -1
- Mtb hypoxia rep growth: 5
O=C(CCc1nc(-c2ccccc2F)no1)NCCc1ccccc1Cl
- ugtP null kill: -3
- Bead autofluor: 4353
- BJeLR lethal: -10
- PrP UTR inh: -10
- RN4220 kill: -1.3
- Mtb hypoxia rep: ·
- Mtb hypoxia rep growth: ·
Cc1ccccc1CCNC(=O)c1ccc(Cl)c(S(=O)(=O)N2CC(C)OC(C)C2)c1 (stereo not drawn)
- ugtP null kill: -22
- Bead autofluor: ·
- BJeLR lethal: ·
- PrP UTR inh: -16
- RN4220 kill: -5.4
- Mtb hypoxia rep: 5
- Mtb hypoxia rep growth: -3
NC(=O)NCc1ccccc1Cl
- ugtP null kill: -4
- Bead autofluor: 4414
- BJeLR lethal: 1
- PrP UTR inh: -15
- RN4220 kill: -0.5
- Mtb hypoxia rep: -4
- Mtb hypoxia rep growth: -9

Full records from above:
CN(CCc1ccccc1)C(=O)c1cccc(NC(=O)Cc2cccc(NC(=O)C3CCCN(C(=O)C4CC4)C3)c2)c1 (stereo not drawn) as listed: ugtP null kill: 2; Bead autofluor: 3902; BJeLR lethal: ·; PrP UTR inh: 53*; RN4220 kill: 3.2; Mtb hypoxia rep: -6; Mtb hypoxia rep growth: 8
CCn1c(SCC(=O)NC2=NCCS2)nnc1C(C)NC(=O)c1ccc(Cl)cc1 (stereo not drawn) as listed: ugtP null kill: ·; Bead autofluor: 3731; BJeLR lethal: -5; PrP UTR inh: -33; RN4220 kill: ·; Mtb hypoxia rep: ·; Mtb hypoxia rep growth: ·

(more compounds)
Value order – ugtP null kill, Bead autofluor, BJeLR lethal, PrP UTR inh, RN4220 kill, Mtb hypoxia rep, Mtb hypoxia rep growth
CON=C(c1ccccc1)c1cccnc1
→ 0, ·, ·, ·, 1.9, -2, 7
Cc1ccccc1/C=C\c1nc2ccccc2c(=O)[nH]1
→ -1, 3399, 4, -59, -6.5, 3, 11
COc1cccc(-c2nn(-c3ccc(C)cc3)cc2C(=O)N(C)CC(=O)Nc2cccc(F)c2)c1
→ 4, 8030, ·, -17, 14, 0, 0
O=C(NCc1ccccn1)c1cc2cc(Br)ccc2oc1=O
→ 2, 25730*, -3, -2, 0.2, -1, -11
O=C(Nc1ccc(F)cc1)c1ccc2ncsc2c1
→ 6, 2980, -7, -35, 3.1, 12, 8
O=C(CSc1ccc(-c2ccccn2)nn1)NC1CCCC1
→ -3, 4299, 7, -26, 4.1, 19, -4
CCOc1ccc(NC(C)=O)cc1N
→ 4, 6001, ·, -8, 3.0, 5, 7
CCN(CC)c1nc(Oc2ccc(=O)[nH]n2)nc(N2CCOCC2)n1
→ 10, 2562, 9, -19, 9.8, 17, 1
N/C(=N\OC(=O)Cc1ccc([N+](=O)[O-])cc1)c1ccccn1
→ ·, 3567, 15, 3, ·, ·, ·
COc1ccc(C(=O)/C=C/c2ccc(OC)c(COc3ccc(F)cc3)c2)cc1
→ 5, 10026, 2, -27, -1.9, 4, 5
N#CCC(=O)Nc1ccc(C(=O)OCC(=O)NNC(=O)c2cccs2)cc1
→ 8, ·, -11, -15, 3.0, 2, 0
Cc1cc(N2CCN(c3ccccc3)CC2)nc2ccccc12
→ 6, 4008, 7, -21, 0.7, 10, 9
O=[N+]([O-])c1ccccc1S(=O)(=O)NCCc1ccncc1
→ -4, 4686, -1, -4, 13, 14, 5
